PINK1 expr mod: changes PINK1 expression; Potency, µM (doses to about 76.6 µM), inactives show top-dose activation (PINK1 increase), hits mostly activators; PINK1 immunofluorescence, high-content cytometry, 24 h; 410,000 tested, 0.2% active; active = well fitted activation curve with a large enough effect; inconclusive = small, poorly fitted or top-dose-only effect; inactive = flat fitted curve, though single readings scatter; cell line not stated here;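 also: potency is read from the fitted curve at half-maximal effect; % of control where 0% means no effect; nearly all actives have a fitted effect of over 65% in size; a mitochondrial uncoupler was the plate control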
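PINK1 protein, normally rapidly degraded, was detected by immunofluorescence after 24 hour compound treatment of a stable cell line. Titration data (5 concentrations) came from laser-scanning cytometry, with CCCP-treated wells as controls.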
D2 agonist: human D2 receptor agonism in beta-arrestin assay. P14416. DiscoveRx PathHunter D2 beta-arrestin, luminescence, 90 min; 100% = 57 uM dopamine signal. activation, % (no concentration beside the values). 360,000 tested, 0.084% active. AID 624465; in the data active = activation above about 40%; inconclusive = about 15% to 40%; inactive = below about 15%; also: compound concentration not given in the record; the text of the record calls up to 30% inactive
Target sequence (P14416 whole entry, looked up): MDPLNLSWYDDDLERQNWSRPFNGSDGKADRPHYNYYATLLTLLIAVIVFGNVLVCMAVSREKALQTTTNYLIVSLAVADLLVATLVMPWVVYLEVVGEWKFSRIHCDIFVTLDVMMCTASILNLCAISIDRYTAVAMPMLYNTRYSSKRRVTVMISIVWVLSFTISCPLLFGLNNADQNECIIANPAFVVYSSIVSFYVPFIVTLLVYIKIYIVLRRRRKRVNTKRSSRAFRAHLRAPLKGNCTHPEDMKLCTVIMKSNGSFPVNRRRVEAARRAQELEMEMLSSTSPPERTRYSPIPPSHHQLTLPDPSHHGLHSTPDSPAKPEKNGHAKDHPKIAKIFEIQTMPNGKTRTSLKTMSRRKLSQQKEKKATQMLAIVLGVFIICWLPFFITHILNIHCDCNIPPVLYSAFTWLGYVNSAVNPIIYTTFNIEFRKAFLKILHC
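Agonist mode: compounds alone added to overnight-plated D2 PathHunter cells for 90 min at 37 C, with 57 uM final dopamine (EC100) defining full response. Beta-arrestin recruitment detected by chemiluminescent reagent, read after 1 h at ambient temperature.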
TRPML1 ag: human mucolipin-1 channel agonism | AID 624414 | TRPML1-expressing cells, Ca2+ dye fluorescence, FDSS; host cell line not named in the record; reference of the full effect not given here | activation, % (concentration not given with the values) | 410,000 tested, 0.12% active | Q9GZU1; in the data active = activation above about 50%; inconclusive = about 30% to 50%; inactive = below about 30%; also: 0% is about no effect; the text of the record puts the active cut at 80%
Target sequence (Q9GZU1 whole entry, looked up): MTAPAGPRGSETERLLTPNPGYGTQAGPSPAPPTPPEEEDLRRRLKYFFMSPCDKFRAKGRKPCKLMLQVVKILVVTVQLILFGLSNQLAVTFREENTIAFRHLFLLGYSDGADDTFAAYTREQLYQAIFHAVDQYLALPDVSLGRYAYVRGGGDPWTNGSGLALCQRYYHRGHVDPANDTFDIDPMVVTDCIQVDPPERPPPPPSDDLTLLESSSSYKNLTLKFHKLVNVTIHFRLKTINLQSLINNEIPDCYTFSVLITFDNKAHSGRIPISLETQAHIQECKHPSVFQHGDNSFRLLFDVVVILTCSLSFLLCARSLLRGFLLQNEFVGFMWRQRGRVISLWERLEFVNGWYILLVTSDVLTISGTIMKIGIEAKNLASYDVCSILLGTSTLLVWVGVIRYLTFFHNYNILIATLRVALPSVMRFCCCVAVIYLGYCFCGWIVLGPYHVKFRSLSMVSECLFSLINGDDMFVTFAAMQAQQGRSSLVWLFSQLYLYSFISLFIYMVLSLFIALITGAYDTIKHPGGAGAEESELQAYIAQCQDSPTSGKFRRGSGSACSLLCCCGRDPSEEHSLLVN
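Tetracycline-induced TRPML1-DL cells are seeded and incubated overnight before loading with a no-wash Ca2+ dye and quencher. Agonist activity is taken from the 110 s fluorescence read following compound pin-transfer on an FDSS, before EC80 54-4 challenge.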
CtBP-E1A inh: blocks the CtBP interaction with E1A; activity change, % (no concentration beside the values); AlphaScreen GST-E1A/His-CtBP binding, 1536-well; hits give low values; control for the full effect not named in the record; 340,000 tested, 0.49% active; in the data active means activity change below about -65%; inconclusive means about -30% to -65%; inactive means above about -30%; also: % is scaled to controls: 0 for no effect and ±100 for the full control effect; compound concentration not given in the record
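AlphaScreen with 125 nM GST-E1A and 125 nM His-CtBP (5X stocks) in Tris pH 8.0, 300 mM NaCl, BSA, Tween 20, TCEP. Compounds preincubated 2 h at 37 deg C, then glutathione donor/nickel acceptor beads added for 1 h at 37 deg C in dark.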
TRPML1 blocker: inhibitors of human TRPML1 channel; TRPML1-inducible cells, Ca2+ dye fluorescence, FDSS; hits give low values; inhibition of EC80 agonist-evoked calcium signal; activity change, negative = inhibition, % (test concentration not listed); AID 624415; Q9GZU1; 390,000 tested, 0.02% active; in the data active means activity change below about -50%; inconclusive means about -30% to -50%; inactive means above about -30%;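 also: stimulus is agonist 54-4 at its EC80 concentration; % is scaled to controls: 0 for no effect and ±100 for the full control effect; compound concentration not given in the record; the text of the record puts the active cut at -80%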
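TRPML1-DL cells, Tet-induced overnight (~16 h, 37 °C) at 1,500 cells/well, were loaded with Ca8 no-wash dye plus quencher for 45-90 min at room temperature. Compounds were pinned during FDSS kinetic reading; agonist 54-4 at EC80 (4 uM final) then added.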
Six1-Eya2 blk: inhibitors of human Six1/Eya2 interaction; Q15475+O00167; AlphaScreen GST-Six1/His-Eya2 binding, biochemical; hits give low values; control for the full effect not named in the record; activity change, % (no concentration beside the values); 360,000 tested, 0.56% active; AID 651725; in the data active = activity change below about -65%; inconclusive = about -30% to -65%; inactive = above about -30%; also: % is scaled to controls: 0 for no effect and ±100 for the full control effect; compound concentration not given in the record
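Six1/Eya2 binding was read as AlphaScreen signal after compounds were pinned into GST-Six1 plus His-tagged Eya2 (5X stock 250/500 nM) in pH 8.0 Tris/NaCl/TCEP buffer, beads added, then incubated 1 h, 37 C, dark.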
* = called active by the depositor; ? = inconclusive; / = not tested or not shown; & = joins results of further samples; [ ] = dose if it differs, or a comment. Outcome played no part in choosing rows; overall some 1% were active at least once.

smiles	PINK1 expr mod	D2 agonist	TRPML1 ag	CtBP-E1A inh	TRPML1 blocker	Six1-Eya2 blk
CCOc1ccccc1CNC(=O)c1ccc(Cn2c(SCc3ccccc3)nc3cccnc32)cc1	-1.4%	/	0.8	/	-1	/
O=C(c1ccc2c(=O)n(CCc3ccccc3)c(=O)[nH]c2c1)N1CCN(c2ccccc2)CC1	8.1%	-3.0	-0.5	0	7	-20
COc1cccc(CN(C)C(=O)[C@@H](NC(=O)c2ccc(C)cc2)C(C)C)c1	8.0%	-4.3	1.9	-14	84	2
O=C(NC1CCS(=O)(=O)C1)/C(=C/c1ccco1)NC(=O)c1ccccc1 (configuration not stated)	-2.2%	1.1	0.3	1	1	3
CSC1=NC2(C[C@H]2c2ccccc2)C(=O)N1C (some centres not stated)	1.2%	-0.2	0.4	5	22	5
CCN(CCO)c1ncnc2c1sc1nc(C(C)C)c3c(c12)CC(C)(C)OC3	2.5%	-2.0	0.0	-4	-9	6
O=C(NN=Cc1ccc(F)c(F)c1)c1ccc(NS(=O)(=O)c2cccs2)cc1	-2.1%	-2.9	2.7	-5	-27	1
OCC1CCCCN1CCNCc1cn[nH]c1-c1cccc2ccccc12 (configuration not stated)	1.2%	0.7	0.4	-2	-2	2
COCCN(C(=O)CSc1ncccn1)c1c(N)n(Cc2ccccc2)c(=O)[nH]c1=O	-0.2%	-5.8	0.6	-3	7	6
O=C(CSc1n[nH]c(-c2ccccc2F)n1)Nc1cc(F)ccc1F	1.5%	-5.0	1.4	-1	2	5
COc1ccc(C(=O)C2CCCN(C(=O)c3ccc4nccnc4c3)C2)c(C)c1 (configuration not stated)	0.2%	-0.1	-1.1	0	-1	-8
O=C(NCC1CCCO1)c1cccc(Oc2c(Cl)cccc2[N+](=O)[O-])c1 (configuration not stated)	-1.9%	4.4	1.6	-20	19	1
Cc1nn2c(-c3ccco3)ccnc2c1-c1ccc(Cl)cc1	4.3%	/	0.1	/	1	/
CN(C)C(CNC(=O)c1ccc(NC(=O)CC#N)cc1)c1ccccc1 (configuration not stated)	1.0%	-3.5	0.1	-15	15	-2
CCOc1ccccc1N1CCN(S(=O)(=O)c2cccc3nsnc23)CC1	-0.2%[38.3 µM]	-2.5	2.0	11	-3	-18
Cc1c(C(=O)Nc2ccc3nc(N4CCOCC4)sc3c2)oc2ccccc12	-0.1%	9.8	55*	-7	-17	-4
COc1ccccc1N(CC(=O)NCC1CCCO1)C(=O)CNS(=O)(=O)c1ccccc1 (configuration not stated)	0.8%	-4.9	0.6	7	5	3
CCn1ccnc1CN(C)Cc1cn(-c2cccc(C)c2)nc1-c1cccc(F)c1	-1.0%	-2.1	3.5	0	82	?
COC(=O)c1sccc1NC(=O)/C=C\c1ccc(Cl)cc1Cl	7.4%	-2.4	0.4	0	-1	-1
CCOc1ccc(NC(=S)N2CCC(N(C)CCN3CCOCC3)CC2)cc1	0.7%	0.1	0.8	2	-18	6
COc1ccc(N2CCN(CC(=O)Nc3nc(C)cs3)CC2)cc1	1.6%	-9.2	0.2	-1	7	-16
O=C(CSc1nnc(-c2ccc(OC(F)F)cc2)o1)NC(=O)NCc1ccco1	9.4%	-3.7	-0.9	-1	2	-2
COc1ccc(C)cc1-n1nnnc1SCC(=O)NC1CC1	-1.3%	0.4	2.2	-12	-24	6
COc1ccccc1-c1nc(S(=O)(=O)c2ccccc2)c(N2CCOCC2)o1	2.6%	-4.4	0.5	-1	11	-6
C=C(C)C1CC=C(C)C(=NNC(=O)c2ccncc2)C1 (configuration not stated)	-0.9%	0.6	0.3	1	9	10

An excerpt from above in order of number of heavy atoms, low to high.
smiles	PINK1 expr mod	D2 agonist	TRPML1 ag	CtBP-E1A inh	TRPML1 blocker	Six1-Eya2 blk
COC(=O)c1sccc1NC(=O)/C=C\c1ccc(Cl)cc1Cl	7.4%	-2.4	0.4	0	-1	-1
CCOc1ccc(NC(=S)N2CCC(N(C)CCN3CCOCC3)CC2)cc1	0.7%	0.1	0.8	2	-18	6
COCCN(C(=O)CSc1ncccn1)c1c(N)n(Cc2ccccc2)c(=O)[nH]c1=O	-0.2%	-5.8	0.6	-3	7	6

The list goes on.
smiles	PINK1 expr mod	D2 agonist	TRPML1 ag	CtBP-E1A inh	TRPML1 blocker	Six1-Eya2 blk
O=C(Nc1cccc2c1CCCC2)c1cc(C2CCCCN2C(=O)OCCF)on1 (configuration not stated)	-0.6%	-2.0	0.0	2	28	-5
Cc1ccc2c(c1)c1c(c(=O)n(-c3ccccc3)c(=O)n1Cc1ccccc1C)n2C	1.2%	/	0.6	/	11	/
CC(C)CCn1cnc2c(NCc3ccccc3)ncnc21	2.1%[38.3 µM]	-3.4	0.4	1	-5	0
Clc1ccc(-n2nnc(-c3cccnc3)n2)cc1Cl	1.6%	-5.3	0.8	5	-3	-1
COc1cc(NS(=O)(=O)c2ccc(NC(=O)COc3ccccc3Cl)cc2)nc(OC)n1	-1.7%	-3.5	-0.1	9	-2	-2
CN(CC(=O)Nn1cnnc1)S(=O)(=O)c1cc(Cl)ccc1Cl	-2.0%[38.3 µM]	-0.1	0.7	1	-11	6
CC1CCN(S(=O)(=O)c2cccc(C(=O)Nc3nncs3)c2)CC1	0.7%	1.0	0.4	0	-13	-9
COc1cc(CC(NC(C)=O)C(=O)NC2CCN(S(=O)(=O)c3ccc(NC(C)=O)cc3)CC2)cc(OC)c1 (configuration not stated)	-0.1%	-1.9	0.5	12	21	9
Cc1ccc(NC(=O)COC(=O)CN2CCCCCC2=O)cc1C	0.5%	-1.2	-0.2	-5	-11	7
CN(CCC#N)CC(=O)Nc1ccc(NC(=O)CN(C)CCC#N)cc1	?	2.6	4.2	0	25	5
CSc1ncc(C(=O)Nc2ccccc2C(=O)c2ccccc2)c(C)n1	1.6%	/	1.5	/	3	/
O=C(CSc1nc2ccccc2c(=O)n1Cc1ccco1)NCCN1C(=O)CSC1=O	12%	4.8	1.2	1	0	3
CCCCn1c(N)c(N(CC(C)C)C(=O)CCNC(=O)c2ccccc2Cl)c(=O)[nH]c1=O	1.5%	-5.4	-0.1	?	-11	-3
Cc1c(NC(=O)/C(C#N)=C/c2c(N3CCCCC3)nc3ccccn3c2=O)c(=O)n(-c2ccccc2)n1C	-0.8%	-0.7	0.5	/	32	4
COc1ccccc1C(=O)NC(=O)CSc1nnc2ccccn12	2.2%	1.7	0.0	4	2	17
COC(=O)CCNC(=O)c1ccc2nc(Cc3ccc(OC)c(OC)c3)oc2c1	-0.3%	-2.9	0.1	-3	41	3
COc1ccc(NC(=O)CSc2nnc(C(C)C)n2N)cc1	1.7%	-3.0	-0.1	-2	-2	-6
COc1ccc(CCn2c(=O)[nH]c3cc(C(=O)N4CCN(c5ccccc5)CC4)ccc3c2=O)cc1OC	8.4%&0.8%	-1.0	1.1&-0.9	9	-10&-2	-2
O=c1c2c(ncn1CCO)nc1n2CCC1	-0.4%	-2.7	-0.5	1	28	8
COc1ccc(CCNC(=O)CCN2C(=O)[C@@H]3Cc4ccccc4CN3C2=O)cc1	0.1%	-2.0	-0.2	4	5	0
Cc1cccc(S(=O)(=O)c2c(N)n(/N=C/c3cccnc3)c3nc4ccccc4nc23)c1	/	-0.5	1.6	10	5	-17
CC1(C)CC(Cc2ccc(Cl)nc2)N(C(=O)OC(C)(C)C)C1 (configuration not stated)	8.1%	-7.9	0.5	3	-20	1
COc1ccc(CNC(=O)C/C(C)=N/NC(=O)Cc2ccc(OC)c(OC)c2)cc1	-0.5%	2.0	-0.5	2	24	-3
COc1cc(CNc2ccc(O)cc2)cc(Br)c1OCc1ccccc1	3.9%	8.3	1.6	/	-2	-2
Cc1cc(C)cc(NC(=O)c2cc(S(=O)(=O)N3CCCCCC3)cn2C)c1	4.3%	/	-0.4	/	-6	/

Whole records, looked up by structure. Values in the order: PINK1 expr mod	D2 agonist	TRPML1 ag	CtBP-E1A inh	TRPML1 blocker	Six1-Eya2 blk
CCOc1ccccc1CNC(=O)c1ccc(Cn2c(SCc3ccccc3)nc3cccnc32)cc1 as listed: -1.4%	/	0.8	/	-1	/
COc1ccc(C)cc1-n1nnnc1SCC(=O)NC1CC1 as listed: -1.3%	0.4	2.2	-12	-24	6
CCOc1ccccc1N1CCN(S(=O)(=O)c2cccc3nsnc23)CC1 as listed: -0.2%[38.3 µM]	-2.5	2.0	11	-3	-18

Remaining list, next part:
smiles	PINK1 expr mod	D2 agonist	TRPML1 ag	CtBP-E1A inh	TRPML1 blocker	Six1-Eya2 blk
Cc1cccc(N2CCN(C(=O)c3cc4cc(F)ccc4[nH]3)CC2)c1C	8.5%	-0.4	-0.9	2	27	-7
CC(C)NC(=O)COC(=O)c1ccccc1C(=O)c1ccccc1	-1.7%	0.6	2.1	6	?	22
O=C(Nc1ccccc1C(=O)Nc1ccc2c(c1)OCO2)c1ccco1	0.7%	0.0	-1.1	?	-14	?
O=C(COc1ccccc1[N+](=O)[O-])N/N=C/c1ccc[nH]1	0.1%	-4.3	0.5	1	-15	2
CCOC(=O)N1CCC(NC(=O)C(NS(=O)(=O)c2cccc3nsnc23)c2ccccc2)CC1 (configuration not stated)	1.3%	3.7	4.4	6	20	2
O=C(c1cccc(S(=O)(=O)NCc2ccccc2)c1)N1CCCC1	1.5%	0.4	-0.9	-20	-20	2
O=C(NCCC1CCCCN1S(=O)(=O)c1ccc(F)cc1)C(=O)NCC1CCCO1 (configuration not stated)	-1.0%	-4.0	-0.1	-2	-5	3
O=C1C(SCCO)=C(SCCO)C(=O)c2ccccc21	3.6%&4.0%&4.3%	9.5	1.6&1.6&0.2	?	9	-3
CCCN(CCC)CCCNC(=O)Cn1cc2c(n1)-c1c(oc(C(=O)N3CCCC3)c1C)CC2	-0.7%	/	0.2	/	9	/
COc1cc(/C=C/C(=O)O)cc(S(=O)(=O)Nc2ccccc2Cl)c1OC	-0.1%	0.3	0.9	-2	7	8
O=C(CCNS(=O)(=O)c1ccccc1C(F)(F)F)NCc1ccc2c(c1)OCO2	8.6%[38.3 µM]	-4.5	-0.7	1	4	1
CC(=O)NC(Cc1cccc(F)c1)C(=O)NC1CCN(C(=O)c2ccc(C)cc2)CC1 (configuration not stated)	-2.6%	-2.8	0.8	0	7	4
COC(=O)c1ccc(C2CC(=O)Nc3c2c(C)nn3-c2nc(C)cc(C)n2)cc1 (configuration not stated)	-0.5%	/	-0.6	/	-4	/
CC1CCCCN1C(=O)CSc1nc(C2CC2)nc2ccccc12 (configuration not stated)	0.5%	-3.4	1.3	0	5	2
Cc1nn2c([nH]c(=O)c3ccccc32)c1C=O	2.4%[38.3 µM]	-0.2	0.3	-25	-8	-21
O=C(NCCc1ccccn1)c1cc(-c2cccc3ccccc23)nc2ccccc12	7.7%	1.5	0.7	-10	12	-23
O=C(CCc1ccccc1)Nc1cc(Cl)ccc1O	-1.6%	-3.1	0.2	-10	-1	-9
C[C@@H]1CC(=O)[C@H]2CC(CO)=CCC[C@@H]2[C@@]1(C)CC/C(=C/CO)CO	0.0%	-8.5	/	1	/	3
